Screening results (PubChem BioAssay)
Vaccinia Venus: inhibitors of vaccinia virus (Venus reporter); actives 0.46% (n = 330,000); Vaccinia virus Venus reporter expression, fluorescence; Potency, µM (titrated, usually from 36.5 µM), without a hit: at the top dose activity change, negative = inhibition, usual class: inhibitors; active means well fitted inhibition curve with a large enough effect; inconclusive means small, poorly fitted or top-dose-only effect; inactive means no such curve, though single readings can be large or run the other way; tested in A549 cells; also: nearly all actives have a fitted effect of over 30% in size; inactives centre near -10
VACV mCherry inh: inhibitors of vaccinia virus infection (mCherry reporter signal). Vaccinia virus mCherry reporter infection, fluorescence; about a quarter of the inactives have no number. actives 0.63% (n = 310,000). Potency, µM (titrated, usually from 36.5 µM), for the others: top-dose activity change, negative = inhibition, usual class: inhibitors. AID 720579; active = well fitted inhibition curve with a large enough effect; inconclusive = small, poorly fitted or top-dose-only effect; inactive = no such curve, though single readings can be large or run the other way; tested in A549 cells; also: nearly all actives have a fitted effect of over 35% in size; inactives centre near -10
The depositor's hits bear a star; i = inactive; ? = inconclusive; nt = not tested or not shown; [ ] = dose if it differs, or a comment. % is scaled to controls: 0 for no effect and ±100 for the full control effect; potency is read from the fitted curve at half-maximal effect.

| SMILES | Vaccinia Venus | VACV mCherry inh |
| --- | --- | --- |
| CC1(C(=O)NCC2CCOCC2)Cc2c(-c3cccc(C(N)=O)c3)ccnc2O1 (configuration not stated) | -8% | 6% |
| CC1=CC2=NC(=O)/C(=C/c3cccs3)C(=N)N2O1 | -6% | -24% |
| COC(=O)c1c(NC(=O)C(C)C)sc(C(=O)N2CCOCC2)c1C | -13% | i |
| Cc1ccc2nc(C3CCCCC3)c(Cc3cccc(F)c3)n2c1 | -14% | 10% |
| CC(C)[C@@H](C(=O)N1CCNCC1)n1cc(CCO)nn1 | -15% | -15% |
| COC(=O)[C@@]1(C)[C@H]2C(=O)N(Cc3ccccc3)C(=O)[C@H]2[C@H]2CN=C(SCc3ccc(C#N)cc3)N21 | -28% | -15% |
| COc1cc(/C=C/C(=O)OC(C)C(=O)Nc2ccc(Cl)cn2)ccc1OC(F)F (configuration not stated) | -18% | -17% |
| O=C(NC(C(=O)c1ccccc1)c1ccccc1)c1ccccc1 (configuration not stated) | 4% | -9% |
| CCN(CC)C(=O)/C(=C\c1ccncc1)NC(=O)c1ccccc1 | -5% | i |
| O=C1CC(c2ccccc2)Cc2nc(N3CCc4ccccc43)ncc21 (configuration not stated) | -13% | -2% |
| COc1ccc(N(CC(=O)NCc2ccc(C)cc2)S(=O)(=O)c2c(C)nn(C)c2C)cc1 | -12% | -14% |
| O=C(Nc1ccccc1)c1nc[nH]c1C(=O)NCCCNC(=O)c1[nH]cnc1C(=O)Nc1ccccc1 | -11% | i |
| COC(=O)c1ccccc1NC(=S)N(Cc1ccc2c(c1)OCO2)Cc1cc2ccc(C)cc2[nH]c1=O | -24% | -22% |
| Cc1ccccc1S(=O)(=O)/N=C(/c1ccccc1)N1CCOCC1 | 2% | -11% |
| CC1CCN(CC(=O)c2ccccc2Cl)CC1 | -11% | -8% |
| COc1ccc(/C=C/C(=O)NC2CCCCC2C)cc1 (configuration not stated) | -2% | -1% |
| Nc1cccc(C#Cc2ccc3c(=O)c4ccccc4oc3c2)c1 | ? | ? |
| CCOC(=O)c1ccc(N(C(=O)c2ccco2)C(C(=O)NC2CCCCC2)c2ccncc2)cc1 (configuration not stated) | -1% | -14% |
| COc1ccccc1C1CC(c2c(-c3ccccc3)c3cc(Cl)ccc3[nH]c2=O)=NN1S(C)(=O)=O (configuration not stated) | 11µM* | 11µM* |
| COC(=O)c1cc2occc2n1CC(=O)Nc1ccc(OC)c(OC)c1 | -14% | i |
| COc1ccc2c(c1)c1ncn(Cc3ccc(F)cc3)c(=O)c1n2C | -17% | ? |
| Cc1oc(-c2cccc(Cl)c2)nc1CN1CCC(C(=O)NCCCN2CCCC2=O)CC1 | -10% | -4% |
| CCOc1ccc(N2CC(C(=O)Nc3ccc(S(=O)(=O)N4CCCC4)cc3)CC2=O)cc1 (configuration not stated) | -20% | i |
| COC(C(=O)Nc1ccnn1C1CCN(Cc2cnn(C(C)C)c2)CC1)c1ccccc1 (configuration not stated) | -3% | i |
| Clc1cccc(/C=N/Nc2nnc(Cl)c3ccccc23)c1 | 6% | i |
| Cn1c(O)c(C2=c3ccccc3=NC2=O)[nH]c1=S | -11% | -13% |
| COC(=O)c1ccccc1NC(=O)CCC(=O)N1CC(C)Oc2ccc(C)cc21 (configuration not stated) | 3% | i |
| Cc1ccc(-n2nnnc2CNC(=O)c2ccc(F)cc2)cc1C | -3% | -11% |
| Cc1ccc(CNS(=O)(=O)c2c(C)[nH]c(C)c2C(=O)N2CCCCC2)cc1 | 0%[7.34 µM] | 11%[7.34 µM] |
| N/C(COc1cccc(C(F)(F)F)c1)=N\NC(=O)c1cccnc1Oc1ccccc1 | -16% | ? |
| CCNC(=O)C1CCCN(C(=O)c2cc(F)ccc2C)CC1 (configuration not stated) | -1% | -5% |
| COc1ccc(NC(=O)c2cc(-c3cc(Cl)ccc3OC)n[nH]2)c(OC)c1 | -10% | -8% |
| CCOC(=O)CSc1nc(C)c(CC)c(C)c1C(N)=O | -4% | -16% |
| CC(C1CC1)N(Cc1ccccc1)C(=O)NC(=O)c1cccc(F)c1 (configuration not stated) | -10% | i |
| COc1ccccc1CNC(=O)/C=C/c1ccc(S(=O)(=O)N2CCOCC2)cc1 | 4% | -2% |
| COC(=O)c1ccc(C(C(=O)NC2CCCCC2)N(CCc2ccccc2)C(=O)Cc2cccs2)cc1 (configuration not stated) | -2% | -16% |
| Cc1ccc(C(=O)NC(C)C2CC3CCC2C3)cc1 (configuration not stated) | -9%[7.34 µM] | i[7.34 µM] |
| CN(C)/C=C/c1onc(-c2c(Cl)cccc2Cl)c1C#N | -4% | -11% |
| CCN1CCN(Cc2ccc(NC(=O)c3ccc(C)c(NC(=O)c4c[nH]c5cc(C(F)(F)F)ccc5c4=O)c3)cc2C(F)(F)F)CC1 | 14µM* | ? |
| CC1CCCCN1C(=O)CCS(=O)(=O)Cc1ccccc1 (configuration not stated) | 4% | -5% |
| CCOc1cc(C(=O)O)ccc1OCCOc1ccccc1 | -10% | -4% |
| CCCS(=O)(=O)N1CCC(C(=O)N2CCc3ccccc3C2)CC1 | -30% | nt |
| C/C(=N\NC(N)=S)C1(C)CCCCC1 | ? | ? |
| COc1ccc(S(=O)(=O)N2CCC(c3ccncc3)CC2)cc1Cl | -14% | -20% |
| COc1ccc(/C=N/n2c(C)nnc2C)c(OC)c1 | -3% | -5% |
| CC(C)c1csc(CN2CCC(N3CCC(C(=O)NCC4CCCO4)CC3)CC2)n1 (configuration not stated) | -1% | -29% |
| O=C(Cc1ccccc1Cl)N1CCN(c2ncccn2)CC1 | -23% | -7% |
| CCOc1ccc(N2CC(c3nc4ccccc4n3Cc3ccccc3F)CC2=O)cc1 (configuration not stated) | -12% | -13% |
| CS(=O)(=O)Nc1ccc(C2=NN(S(C)(=O)=O)C(c3ccc4nccnc4c3)C2)cc1 (configuration not stated) | -6% | -12% |
| Cc1oc2ncn(C)c(=O)c2c1C(=O)N(Cc1ccccc1)C(C)C | -8% | -13% |

Continuation.
| SMILES | Vaccinia Venus | VACV mCherry inh |
| --- | --- | --- |
| COc1ccc2sc3ccccc3c(=O)c2c1 | -8% | -16% |
| O=C(COC(=O)CNC(=O)c1ccccc1)Nc1nc(-c2ccccc2)cs1 | -12% | -13% |
| Cc1c(O)c2cccnc2[nH]c1=O | -15% | -8% |
| Cc1cc(C)cc(N(CCC#N)C(=O)COC(=O)CNC(=O)c2sc3ccccc3c2Cl)c1 | 3% | -4% |
| COC(=O)C1=CN(c2ccc(Oc3ccccc3)cc2)C(N)=C(C#N)C1c1cccc(OC)c1OC (configuration not stated) | -15% | -20% |
| CCCn1c(=O)c(C(=O)NC(C)c2ccccc2)c(O)c2ccccc21 (configuration not stated) | -14% | i |
| O=C(c1ccccc1)c1ccccc1C(=O)N1CCCC1 | -6% | -5% |
| CCOc1ccc(C(=S)N2CCCC2)c(OCC)c1 | -10% | -4% |
| COc1ccc(S(=O)(=O)N2CCCCCC2)cc1C(=O)Nc1ccc(C)cn1 | -5% | -19% |
| C/C(CC(=O)Nc1cc(Cl)ccc1C)=N\NC(=O)C(=O)N1CCCC1 | -9% | -29% |
| O=C(OCC1OC2OC3(CCCCC3)OC2C2OC3(CCCCC3)OC12)c1ccccc1 (configuration not stated) | 4% | -10% |
| COCCN(C(=S)Nc1ccc(OC)cc1)C1CCN(C(C)=O)CC1 | -5% | -12% |
| CS(=O)(=O)NCCCCCCNS(C)(=O)=O | -3% | -16% |
| O=C(Cn1ccccc1=O)c1ccc(Cl)cc1 | -4% | -18% |
| COc1ccc(C(=O)OCc2cc(=O)n3nc(-c4cccs4)sc3n2)cc1 | 2% | -9% |
| COC(=O)c1cccc(NC(=O)Nc2ccc(Cl)cc2)c1 | -3% | 1% |
| O=C(CNC(=O)c1cccs1)OCC(=O)c1ccc2ccccc2c1 | -4% | -13% |
| CCOc1ccc(CCNC(=O)c2cn(CC)c3ccc(S(=O)(=O)N4CCCCCC4)cc3c2=O)cc1OCC | ? | ? |
| C/C(Sc1nnc(Cc2ccccc2)o1)=C(\O)c1ccccc1 | -1% | -8% |
| COc1ccc(C2CC(c3ccc(Br)cc3)=NN2C(=S)Nc2ccccc2)cc1 (configuration not stated) | -13% | ? |
| Cc1cc(C)n2cc(CSc3nc4ccccc4[nH]3)nc2n1 | -14% | -18% |
| Cc1onc(-c2ccccc2Cl)c1C(=O)NCCN1Cc2ccccc2C1=O | -3% | -11% |
| COc1ccc(CNC(=O)O[C@@H]2C[C@H]3C(=O)N(c4ccccc4)C(=O)[C@H]3[C@@]3(CN(S(=O)(=O)c4ccc(C)cc4)C[C@H]3C)[C@@H]2O)cc1OC | -21% | ? |
| COc1cc(NC(=O)c2ccc3c(c2)OCO3)ccc1NC(=O)c1ccco1 | -10% | i |
| O=C(CSc1n[nH]c(-c2cccnc2)n1)OC1CCCCC1 | 7% | -3% |
| CCCCOc1ccc(C(N)=O)cc1 | -18% | -14% |
| COc1cc(NC(=O)c2ccco2)c(OC)cc1NC(=O)Nc1ccc(Cl)cc1 | ? | -14% |
| O=C(OCCCOC(=O)c1ccc(O)cc1)c1ccc(O)cc1 | -16% | -2% |
| Cc1ccc(NC(=O)CN2C(=O)c3ccccc3C2=O)cc1 | -1% | -19% |
| Cc1nc(N2CCOCC2)c2c(C(=O)N(C)c3ccccc3)c(C)oc2n1 | -11% | -1% |
| COc1cc(NC(=O)c2cccs2)cc(OC)c1 | -2% | nt |
| O=C(OCC(=O)c1ccc([N+](=O)[O-])cc1)/C(=C/c1ccc(Cl)cc1)NC(=O)c1ccccc1 | -15% | -1% |
| O=C(NC1CCCC1)C(C1CC1)n1c(-c2ccccn2)nc2ccccc21 (configuration not stated) | -10% | -7% |
| COCCCN(C(=O)CSCc1c(C)noc1C)c1c(N)n(Cc2ccccc2)c(=O)[nH]c1=O | -2% | -9% |
| COc1ccc(OC)c(CNC(=O)Cn2nc(C)c3c(C)n(-c4ccccc4)nc3c2=O)c1 | -11% | -21% |
| Cc1cnc(C(=O)Nc2cccc(S(=O)(=O)N(C)C)c2)cn1 | -6% | -9% |
| O=C(Cc1ccccc1)N1CCN(C(=O)c2ccco2)CC1 | -12% | nt |
| CC(C)OCC(O)CS(=O)Cc1ccccc1 (configuration not stated) | -8% | i |
| COC(=O)CSc1nnc(-c2ccco2)o1 | -10% | i |
| O=S(=O)(c1cnc[nH]1)N1CCN(c2ccc(Cl)cc2)CC1 | -7% | -6% |
| CCC(C)(C)C1CCC2(CC1)NC(=O)N(CC(=O)Nc1nc(-c3ccc(C)cc3)cs1)C2=O (configuration not stated) | -16% | nt |
| Cn1c(-c2ccc(F)cc2)cc2onc(-c3c(F)cccc3Cl)c2c1=O | -24% | -3% |
| C=CCn1c(-c2ccc(Cl)cc2)cnc1SC(C)C(=O)NC(N)=O (configuration not stated) | -11% | -3% |
| O=C(CSc1nnc2ccc(-c3ccc(F)cc3)nn12)NCC1CCCO1 (configuration not stated) | -10% | -25% |
| CC(C)c1cc(Cn2c3ccccc3c(=O)n2C(C)Cn2cc(-c3ccc(C(C)(C)C)cc3)nn2)on1 (configuration not stated) | -17% | -31% |
| CCOC(=O)c1ccc(NC(=O)CSc2nnc(CNc3ccc(OC)cc3)n2C)cc1 | -5% | -9% |
| COc1ccc(-c2cc(C(=O)Nc3ccc(OC)c(OC)c3)no2)cc1 | -6% | -27% |
| CCCS(=O)(=O)N1CCCC(C(=O)NCC2CCCO2)C1 (configuration not stated) | -15% | nt |
| N#C/C(=N\Nc1ccc(S(=O)(=O)N2CCc3ccccc32)cc1)C(N)=S | -28% | -29% |
| Oc1ccccc1CC=NC1CCCCC1 | -11% | -17% |

Remaining list, next part:
| SMILES | Vaccinia Venus | VACV mCherry inh |
| --- | --- | --- |
| CN(c1ccc(OCC(=O)OCC(=O)NCc2ccco2)cc1)S(=O)(=O)c1ccc2ccccc2c1 | -3% | -4% |
| Cc1onc(-c2c(Cl)cccc2Cl)c1C(=O)N1CCCc2ccccc21 | -28% | ? |
| CC[C@]12c3[nH]c4ccc(Cl)cc4c3CCN1C(=O)[C@@H](CC(=O)NCCCn1ccnc1)C[C@@H]2C(=O)N1CCN(C(=O)c2ccco2)CC1 | -5% | i |
| COc1ccc(NC(=O)NNS(=O)(=O)c2ccc(Br)cc2)cc1 | -20% | -12% |
| CN(CC(=O)N1CCc2[nH]c3ccc(F)cc3c2C1)CC1OCCO1 | -3% | -17% |
| O=C(NCC1CCCO1)/C(=C\c1cccc([N+](=O)[O-])c1)NC(=O)c1ccccc1 (configuration not stated) | -5% | -10% |
| Cc1ccc(NC(=O)C(Cc2ccccc2)NS(=O)(=O)c2ccc3c(c2)oc(=O)n3C)c(Cl)c1 (configuration not stated) | -1% | 2% |
| OCCn1ccc(-c2ccccc2OCc2ccc(F)cc2)n1 | -20% | -17% |
| COCCCNC(=O)c1ccc(CS(=O)(=O)c2cccc(C(F)(F)F)c2)o1 | -10% | -4% |
| CC(C(=O)NCC1CCCCC1)N1CCN(S(=O)(=O)c2ccccc2F)CC1 (configuration not stated) | -12% | -14% |

Among those listed so far, these have a cyano group.
| SMILES | Vaccinia Venus | VACV mCherry inh |
| --- | --- | --- |
| COC(=O)[C@@]1(C)[C@H]2C(=O)N(Cc3ccccc3)C(=O)[C@H]2[C@H]2CN=C(SCc3ccc(C#N)cc3)N21 | -28% | -15% |
| CN(C)/C=C/c1onc(-c2c(Cl)cccc2Cl)c1C#N | -4% | -11% |
| Cc1cc(C)cc(N(CCC#N)C(=O)COC(=O)CNC(=O)c2sc3ccccc3c2Cl)c1 | 3% | -4% |
| COC(=O)C1=CN(c2ccc(Oc3ccccc3)cc2)C(N)=C(C#N)C1c1cccc(OC)c1OC (configuration not stated) | -15% | -20% |
| N#C/C(=N\Nc1ccc(S(=O)(=O)N2CCc3ccccc32)cc1)C(N)=S | -28% | -29% |
